Source: PubChem
Ba CapD inh = CapD enzyme inhibition. purified CapD enzyme, fluorescence intensity read-out; active compounds read low; some hits fall short of the stated cut. z-score (concentration not given with the values). 140,000 tested, 0.23% active. AID 492967;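 active means z-score under -4 in either of two replicates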;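 further: stock transfer was 100 nL into about 40 µL; score is relative to mean and spread of the plate; one replicate is shown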
AID504770 = growth inhibitors of E. coli YBA685 in a screen for V. cholerae RctB (chromosome II replication) inhibitors; E. coli YBA685 rctB-dependent plasmid, OD600 growth, 3 h; active compounds read low; z-score (no concentration beside the values); 130,000 tested, 0.27% active; AID 504770;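 active means z-score under -2 on both plates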;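 further: wells of about 30 µL received 100 nL stock; score is relative to mean and SD of the test wells; the first replicate is given; strong numbers were not always called active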
* = called active by the depositor; & = joins results of further samples.

Screening COc1ccc(NC(=O)c2c(C)oc3ccc(O)c(CN4CCN(C)CC4)c23)cc1 returned Ba CapD inh 1.17 and AID504770 -0.65.
`O=C(C1Cc2ccccc2CN1S(=O)(=O)c1cccs1)N1CCCCCC1` (stereo not given) gave Ba CapD inh -0.325 and AID504770 -0.95.
`OC1CCCCC1c1ccccn1` (stereo not given) gave Ba CapD inh -0.365 and AID504770 -0.05.
O=c1c2c3c(sc2nc(SCCS(=O)(=O)F)n1-c1ccccc1)CCCC3 was read as Ba CapD inh 3.45.
For Cc1nc(-c2cnccn2)ncc1S(=O)(=O)c1ccc(Cl)cc1 the results were Ba CapD inh 0.195.
CCC1(CC)Cc2ccccc2-c2nc(NCCCO)[nH]c(=O)c21 was read as AID504770 -0.4.
Screening CC(C)(C)C1=C(C#N)C(c2ccc(Cl)cc2)CC(=O)N1 (stereo not given) returned Ba CapD inh 0.235 and AID504770 -1.1.
For CCc1sc(-c2ccccc2)nc1C(=O)OC the results were Ba CapD inh 0.89 and AID504770 0.35.
COC(=O)c1ccc(CSc2ncccn2)cc1 was read as Ba CapD inh 1.33 and AID504770 0.55.
Screening C=CCc1c(C)nc(SC)nc1Nc1ccc(C(=O)O)cc1 returned AID504770 2.75.
For O=C(C1CCC1)N1CCc2cc(S(=O)(=O)NCCN3CCCC3)ccc21 the results were Ba CapD inh 18.3 and AID504770 -0.2.
Screening Cc1cc(C)nc(SCCN(C)C)n1 returned AID504770 1.95.
Screening O=C(O)c1cccnc1SC1CC(=O)N(C2CCCC2)C1=O (stereo not given) returned Ba CapD inh -0.41 and AID504770 -0.4.
For COc1cc(C(=O)O)ccc1OCc1ccccc1 the results were Ba CapD inh -1.02 and AID504770 -0.15.
Screening COc1ccc2cc3c(N)nn(C(=O)Cc4ccc(Cl)cc4)c3nc2c1 returned Ba CapD inh 0.225 and AID504770 -0.55.
`CCOc1ccc2c(c1)C(=O)c1cc(OCC)ccc1-2` gave Ba CapD inh 0 and AID504770 -0.1.
Screening COc1ccc(NCN2C(=O)S/C(=C/c3ccccc3OC)C2=O)cc1Cl returned Ba CapD inh -0.035.
For CC(C)c1ccc(NC(=S)NN2CCOCC2)cc1 the results were Ba CapD inh -0.31 and AID504770 1.15.
Screening O=[N+]([O-])c1ccc(N2CCC(n3cccc3)CC2)cc1 returned Ba CapD inh -0.245.
`CC1=Nc2ncnn2C(c2ccccc2)/C1=N\O` (stereo not given) gave AID504770 -3.05.
Screening COc1ccc(N2C(=O)CC(N(O)c3ccccc3)C2=O)cc1 (stereo not given) returned Ba CapD inh -0.225 and AID504770 -0.6.
`Cc1cccc(-n2cnc3cc(C(=O)NCCC4=CCCCC4)ccc32)c1` gave Ba CapD inh -0.715 and AID504770 1.1.
Screening CCC(C(=O)N1CCN(CC)CC1)c1ccccc1 (stereo not given) returned Ba CapD inh 0.2 and AID504770 -0.15.
Screening Cc1cc(C)nc(SCC(=O)Oc2cccc(OC(=O)CSc3nc(C)cc(C)n3)c2)n1 returned Ba CapD inh -0.055 and AID504770 0.4.
For CCC1CN(C(=O)NC2CCCC2)c2ccccc2O1 (stereo not given) the results were Ba CapD inh -0.78 and AID504770 -0.05.
Screening c1ccc(Cc2nc3ccc4[nH]snc4c3n2)cc1 returned Ba CapD inh 0.355 and AID504770 -1.25.
For Nn1c(SCC(=O)NCc2ccc3c(c2)OCO3)nncc1=O the results were AID504770 -0.6.
Screening Cc1nc(Cc2nnc(SCC(=O)c3ccc(Cl)s3)o2)cs1 returned AID504770 -2.9.
For COC(=O)c1nc(NC2=NCCCCC2)n[nH]1 the results were AID504770 -1.45.
`COc1cccc(N/C(SCc2c(F)cccc2Cl)=C(/C#N)C(=O)NCc2ccccc2)c1` gave Ba CapD inh -0.425.
For CC(=O)Nc1nc(CSc2nnc(-c3cccc(S(=O)(=O)N4CCCCC4)c3)o2)cs1 the results were AID504770 -0.2.
For COc1ccc(C(=O)OCC(N)=O)c(OC)c1 the results were AID504770 -0.6.
For CCOc1cccc2c1OC(c1ccc(SC)cc1)N1N=C(c3cccc(OC)c3)CC21 (stereo not given) the results were Ba CapD inh 0.475.
For Cc1ccc(S(=O)(=O)NC(C)C(=O)Oc2cc3oc(=O)c(Cl)c(C)c3cc2Cl)cc1 (stereo not given) the results were Ba CapD inh 45 and AID504770 1.8.
For N#CCOC(=O)c1cc(-c2ccc(C=C(C#N)C#N)o2)ccc1Cl the results were AID504770 -0.85.
Screening O=c1c2ccccc2nc(N2CCCCC2)n1-c1ccccc1 returned Ba CapD inh -0.165 and AID504770 -1.25.
CN(C)c1nnnn1-c1ccc(Oc2ncc(C(F)(F)F)cc2Cl)cc1 was read as Ba CapD inh -0.34.
`Nc1nc(COc2ccccc2)cs1` gave Ba CapD inh -0.395 and AID504770 -0.95.
For N/C(Cn1ccccc1=O)=N\O the results were AID504770 0.35.
For O=C(CCN1CCOCC1)N1c2ccccc2Sc2ccc(Cl)cc21 the results were Ba CapD inh 8.04 and AID504770 0.25.
For CCC(Oc1ccccc1)C(=O)N1CCOCC1 (stereo not given) the results were AID504770 -1.25.
For Cc1nn(CCCC(=O)NCCc2ccccc2)c(=O)c2nccn12 the results were Ba CapD inh 0.86 and AID504770 -0.3.
`CN(CCC#N)C(=O)Cn1cnc2c(cnn2-c2ccc(F)cc2)c1=O` gave AID504770 1.1.
Cn1c(=O)c2c(nc(NCc3ccc4c(c3)OCO4)n2Cc2cccc3ccccc23)n(C)c1=O was read as Ba CapD inh 0.21.
`O=C(CSc1cccc[n+]1[O-])NCC1CCCCC1` gave AID504770 -1.65.
CCOC(=O)C1=C(O)/C(=C/c2ccc(N(C)C)cc2)SC1=Nc1cccc2ccccc12 was read as Ba CapD inh -0.205.
O=C(O)Cn1cc(/C=C2\C(=O)NC(=O)N(c3ccc4c(c3)OCO4)C2=O)c2ccccc21 was read as Ba CapD inh -1.01 and AID504770 -0.1.
For COC(=O)N/N=C/c1cn(-c2ccccc2)nc1-c1ccc(OC)cc1 the results were AID504770 0.05.

Gathered by group: those above with a carbonyl joined to an NH by a bond outside any ring
Screening COc1ccc(NC(=O)c2c(C)oc3ccc(O)c(CN4CCN(C)CC4)c23)cc1 returned Ba CapD inh 1.17 and AID504770 -0.65.
`Cc1cccc(-n2cnc3cc(C(=O)NCCC4=CCCCC4)ccc32)c1` gave Ba CapD inh -0.715 and AID504770 1.1.
For CCC1CN(C(=O)NC2CCCC2)c2ccccc2O1 (stereo not given) the results were Ba CapD inh -0.78 and AID504770 -0.05.
For Nn1c(SCC(=O)NCc2ccc3c(c2)OCO3)nncc1=O the results were AID504770 -0.6.
`COc1cccc(N/C(SCc2c(F)cccc2Cl)=C(/C#N)C(=O)NCc2ccccc2)c1` gave Ba CapD inh -0.425.
For CC(=O)Nc1nc(CSc2nnc(-c3cccc(S(=O)(=O)N4CCCCC4)c3)o2)cs1 the results were AID504770 -0.2.
For COc1ccc(C(=O)OCC(N)=O)c(OC)c1 the results were AID504770 -0.6.
For Cc1nn(CCCC(=O)NCCc2ccccc2)c(=O)c2nccn12 the results were Ba CapD inh 0.86 and AID504770 -0.3.
`O=C(CSc1cccc[n+]1[O-])NCC1CCCCC1` gave AID504770 -1.65.
For COC(=O)N/N=C/c1cn(-c2ccccc2)nc1-c1ccc(OC)cc1 the results were AID504770 0.05.

Next section
Screening O=C(c1ccc2c(=O)n(-c3ccccc3)c(=O)[nH]c2c1)N1CCN(c2ccc(F)cc2)CC1 returned Ba CapD inh -0.575 and AID504770 -0.65.
Screening CCO/N=C/c1c[nH]c2c(CC)cccc12 returned AID504770 -0.5.
`Cc1ccccc1OCC(=O)NC1CCCCC1` gave Ba CapD inh 0.615 and AID504770 -0.05.
CCOc1ccc2c(c1)-c1c(ssc1=S)C(C)(C)N2C(=O)CN1C(=O)C2CCCCC2C1=O (stereo not given) was read as Ba CapD inh -0.815.
`COc1cc(C2C(C#N)=C(C)Nc3oc(C)nc32)ccc1OCCN1CCOCC1` (stereo not given) gave Ba CapD inh -0.21 and AID504770 -0.6.
`COc1ccc2nc(NC(=O)[C@@H]3CCCN3C(=O)c3cccs3)sc2c1` gave AID504770 -0.4.
`Cc1ccc(-c2cc(C#N)c(=O)n(Cc3ccc(Cl)c(Cl)c3)c2)cc1` gave Ba CapD inh 4.46.
Screening Cc1onc(-c2c(Cl)cccc2Cl)c1/C=N/O returned Ba CapD inh -0.445 and AID504770 -0.4.
For Cc1cc(C)nc(Nc2ccccc2C(=O)O)n1 the results were Ba CapD inh 0.965&4.37 and AID504770 -0.5.
For COc1ccc(C2Nc3ccccc3C(=O)N2c2cccc3ccccc23)cc1COc1ccccc1F (stereo not given) the results were Ba CapD inh 35.5.
Screening CCOC(=O)N1CCC(=NNc2nc3ccccc3s2)CC1 returned AID504770 -0.25.
Screening O=C(N/N=C/c1ccco1)c1ccc(Br)o1 returned Ba CapD inh -3.71 and AID504770 -1.35.
Screening O=c1oc2ccccc2cc1NCc1ccccc1O returned Ba CapD inh 0.905 and AID504770 -0.55.
CCN=c1scc(-c2cccs2)n1/N=C(\C)CC was read as AID504770 -0.65.
Cc1ccc2cc3c(nc2c1)N(c1ccc(C(=O)NCc2ccco2)cc1)CC3 was read as Ba CapD inh 0.09 and AID504770 0.
Screening CSC1=N/C(=C\c2ccc(C)o2)C(=O)S1 returned Ba CapD inh -0.7 and AID504770 0.2.
O=C(CSc1ncccc1C(=O)O)c1cccc(C(F)(F)F)c1 was read as AID504770 0.95.
Screening COc1ccc(CC2CCC(=NOC(=O)c3ccc(C(C)(C)C)cc3)CC2)cc1 (stereo not given) returned Ba CapD inh 0.845.
COc1cccc(/C=C2\SC(=O)N(CCC(=O)O)C2=O)c1 was read as Ba CapD inh -1.42 and AID504770 0.4.
For CN1CCN(C2=Nc3cc(Cl)ccc3Nc3ccccc32)CC1 the results were Ba CapD inh 2.98&8.59 and AID504770 0.15.
c1cc2c(cc1NC1CC3CCC1C3)OCO2 (stereo not given) was read as Ba CapD inh 8.96 and AID504770 -0.3.
`O=C(NCCc1c[nH]c2ccc(Cl)cc12)OCc1ccc(Cl)cc1` gave Ba CapD inh -0.805.
Cc1ccc(N2CC(c3nc4ccccc4[nH]3)CC2=O)c(C)c1 (stereo not given) was read as Ba CapD inh 0.04 and AID504770 -0.6.
CN(CCc1ccccn1)S(=O)(=O)c1ccc2c(c1)CCO2 was read as Ba CapD inh -0.24 and AID504770 0.15.
Screening O=C(NCc1ccc(S(=O)(=O)NCCc2ccccc2)s1)c1ccccc1 returned Ba CapD inh -0.045 and AID504770 -0.95.
For NNC(=O)COc1ccccc1 the results were Ba CapD inh 1.09 and AID504770 1.15.
For COc1ccc(C2C(C#N)=C(N)OC3=C2CCCC3)cc1 (stereo not given) the results were Ba CapD inh -0.08 and AID504770 2.55.
For S=c1[nH]nc(-c2ccc3c(c2)OCO3)o1 the results were AID504770 -1.05.
`CC(C)(C)c1cc(C(=O)N2CCc3ccccc3C2)ccn1` gave Ba CapD inh 0.4 and AID504770 -0.25.
`O=C(CCN1C(=O)/C(=C\c2cccc(Br)c2)SC1=S)Nc1ccccc1C(=O)O` gave Ba CapD inh -0.235.
For CC1(C)Cc2c(sc3nc(Nc4ccccc4)[nH]c(=O)c23)CO1 the results were Ba CapD inh 25.3 and AID504770 -0.35.
Screening Cc1cc(C(F)(F)F)c2c(C)cc(=O)n(C)c2n1 returned AID504770 -0.65.
For OC(CSc1ccc(F)cc1)(c1ccc(Cl)cc1)c1ccc(Cl)cc1 the results were Ba CapD inh -0.055.
For O=S(=O)(NCc1csc2ccc(Cl)cc12)c1cccs1 the results were Ba CapD inh 0.55 and AID504770 -0.5.
`Cc1c(O)ccc2c(=O)c(-c3ccccc3Cl)coc12` gave Ba CapD inh 0.745 and AID504770 0.9.
Screening CCN(CC)S(=O)(=O)c1ccc(C(=O)Nc2c3c(nn2-c2ccc(F)cc2)CSC3)cc1 returned Ba CapD inh -0.275.
For O=c1nc2n(c3ccccc13)Cc1ccccc1-2 the results were AID504770 -0.55.
Cc1cccc(Nc2nc(N)nc(CSc3nccn3C)n2)c1 was read as Ba CapD inh 0.06 and AID504770 0.2.
O=C(Nc1ccccc1-c1nc2ccccc2[nH]1)c1ccc(Cl)cc1 was read as Ba CapD inh 6.56.
`COc1ccc(NC(=O)CCNS(=O)(=O)c2cccc3nonc23)cc1Cl` gave Ba CapD inh 0.45 and AID504770 -1.
`CCn1c(CSc2ncccn2)nnc1SCC(=O)N1CCCCC1` gave AID504770 0.15.
Screening CCCCCOC(=O)C1=C(C)NC(=O)NC1c1cccc(OCc2ccccc2)c1 (stereo not given) returned Ba CapD inh -0.225.
Cc1nc(C(F)(F)F)ccc1C(=O)N1CCCCC1 was read as Ba CapD inh 0.22 and AID504770 0.3.
Screening C=CCNC(=O)c1ccc2cnccc2n1 returned Ba CapD inh -0.79.
`O=C1c2cccc(Cl)c2C(=O)c2cccc(Cl)c21` gave Ba CapD inh -0.22.
CCCCn1c(SCC(=O)Nc2ccccc2)nc2ccccc2c1=O was read as AID504770 1.
Screening Cn1c(=O)c2c(nc(SCSc3nc4c(c(=O)n(C)c(=O)n4C)n3C)n2C)n(C)c1=O returned Ba CapD inh 0.395 and AID504770 0.05.
Screening CC1=C(C#N)C(C(F)(F)F)(C(F)(F)F)N=C(C2CCCCC2)N1 returned Ba CapD inh 79.2 and AID504770 0.55.
`COC(=O)c1sc(C(F)(F)F)c(-c2ccccc2)c1N` gave Ba CapD inh 5.63.
Screening O=C(Oc1ccc(-c2nnco2)cc1)c1oc2ccccc2c1COc1ccccc1 returned AID504770 0.95.
Screening CC(C)c1ccc(S(=O)(=O)N2CCN(CC(=O)C(C)(C)C)CC2)cc1 returned Ba CapD inh 0.075 and AID504770 1.35.
`C=CCNC(=O)C1(c2cccs2)CCOCC1` gave AID504770 1.05.
Screening COc1ccc(CN2CCC(C(=O)NC3CCCC3)CC2)cc1OC returned Ba CapD inh -0.045 and AID504770 0.35.
For O=C(O)CCN1C(=O)/C(=C/c2ccc(-c3ccc(Cl)cc3Cl)o2)SC1=S the results were Ba CapD inh -0.275 and AID504770 1.2.
COC(=O)c1ccc(COC(=O)c2c(C)nn(Cc3ccccc3Cl)c2Cl)o1 was read as AID504770 1.15.
